PINK1 expr mod: changes PINK1 expression | PINK1 immunofluorescence, high-content cytometry, 24 h | Potency, µM (highest dose often 76.6 µM), inactives show at the top dose activation (PINK1 increase), hits mostly activators | hit rate 0.2% among 410,000; active = well fitted activation curve with a large enough effect; inconclusive = small, poorly fitted or top-dose-only effect; inactive = flat fitted curve, though single readings scatter; cell line not stated here;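 further: potency means the concentration at half of the fitted maximal effect; % of control where 0% means no effect; nearly all actives have a fitted effect of over 65% in size; a mitochondrial uncoupler was the plate control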
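PINK1 protein level read as immunofluorescence by microplate cytometer in a fixed, stained stable cell line after 24 h exposure to five compound concentrations, with CCCP as control.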
TRPML1 agonist: human mucolipin-1 channel agonism; Q9GZU1; TRPML1-expressing cells, Ca2+ dye fluorescence, FDSS; host cell line not named in the record; reference of the full effect not given here; activation, % (no concentration beside the values); hit rate 0.12% among 410,000; in the data active = activation above about 50%; inconclusive = about 30% to 50%; inactive = below about 30%; further: 0% is about no effect; the text of the record puts the active cut at 80%
Target sequence (Q9GZU1 whole entry, looked up): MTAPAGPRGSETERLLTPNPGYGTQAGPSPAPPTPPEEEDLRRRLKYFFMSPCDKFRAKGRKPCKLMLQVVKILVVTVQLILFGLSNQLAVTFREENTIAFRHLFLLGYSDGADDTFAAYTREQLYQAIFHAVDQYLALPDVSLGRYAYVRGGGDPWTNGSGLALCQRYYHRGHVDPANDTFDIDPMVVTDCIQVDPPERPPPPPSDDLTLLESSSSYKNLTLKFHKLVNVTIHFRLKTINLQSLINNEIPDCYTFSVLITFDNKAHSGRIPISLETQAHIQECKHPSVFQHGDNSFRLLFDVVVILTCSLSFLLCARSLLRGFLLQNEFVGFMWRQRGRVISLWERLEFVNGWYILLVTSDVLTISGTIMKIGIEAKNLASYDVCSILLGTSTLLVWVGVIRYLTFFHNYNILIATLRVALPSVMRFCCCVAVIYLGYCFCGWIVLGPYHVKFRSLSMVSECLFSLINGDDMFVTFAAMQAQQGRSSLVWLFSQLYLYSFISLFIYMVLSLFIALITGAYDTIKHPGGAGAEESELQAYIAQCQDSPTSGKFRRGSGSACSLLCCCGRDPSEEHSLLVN
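Tet-induced TRPML1-DL cells, 1,500 per well, cultured overnight, were loaded with a no-wash Ca2+ dye for 45–90 min. Calcium fluorescence was recorded on the FDSS for 110 s after compound addition, before the EC80 agonist (4 uM 54-4) was added.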
TRPML1 inh: inhibitors of human TRPML1 channel; TRPML1-inducible cells, Ca2+ dye fluorescence, FDSS; stronger effect = lower value; inhibition of EC80 agonist-evoked calcium signal; activity change, negative = inhibition, % (no concentration beside the values); hit rate 0.02% among 390,000; AID 624415; in the data active means activity change below about -50%; inconclusive means about -30% to -50%; inactive means above about -30%;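 further: stimulus is agonist 54-4 at its EC80 concentration; on the % scale 0 is the no-effect control and ±100 the full control effect; compound concentration not given in the record; the text of the record puts the active cut at -80%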
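TRPML1-DL cells, Tet-induced overnight (~16 h, 37 °C) at 1,500 cells/well, were loaded with Ca8 no-wash dye plus quencher for 45-90 min at room temperature. Compounds were pinned during FDSS kinetic reading; agonist 54-4 at EC80 (4 uM final) then added.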
ClpP mod: qHTS Assay for Activators of ClpP | purified B. subtilis ClpP, FRET peptide cleavage, 20 min | Potency, µM (doses to about 57.5 µM), for the others: at the top dose activity change, negative = active | hit rate 1.9% among 340,000 | AID 651965, 2013; active = well fitted falling curve with a large enough effect; inconclusive = small, poorly fitted or top-dose-only effect; inactive = no such curve, though single readings can be large or run the other way; further: potency means the concentration at half of the fitted maximal effect; the source files actives as falling curves though it sought activators and does not explain the sign; nearly all actives have a fitted effect of over 65% in size; many hits overshoot -100%
Target sequence (P80244 whole entry, looked up): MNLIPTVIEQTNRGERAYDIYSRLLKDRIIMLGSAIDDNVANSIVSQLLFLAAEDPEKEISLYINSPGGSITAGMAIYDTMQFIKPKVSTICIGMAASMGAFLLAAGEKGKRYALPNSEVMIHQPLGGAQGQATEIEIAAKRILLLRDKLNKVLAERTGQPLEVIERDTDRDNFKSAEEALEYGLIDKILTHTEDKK
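ClpP 10 microg/mL final, pH 8 Tris/KCl buffer with BSA, glycerol, Tween-20; compound pinned in; FRET-FV substrate; RT 20 min; Ex320/Em430; ΔFRET vs ADEP 5.8 microM, DMSO, no enzyme.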
Sfp PPTase inh: Sfp phosphopantetheinyl transferase inhibition; hit rate 3.5% among 310,000; AID 1490; Biochemical Sfp PPTase activity, qHTS; Q9F4F7; Potency, µM, for inactives: max response, negative = inhibition, most hits filed as inhibitors; active means well fitted inhibition curve with a large enough effect; inconclusive means small, poorly fitted or top-dose-only effect, or another doubt; inactive means no such curve, though single readings can be large or run the other way;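 further: the enzyme is Sfp with the accession as filed and its product quenches rhodamine fluorescence; potency means the concentration at half of the fitted maximal effect; 0% = enzyme reaction without inhibitor and -100% = no enzyme wells; top concentration of the series not given in the record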
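With Hepes-Na pH 7.6 buffer containing 10 mM MgCl2, Sfp (15 nM) modified BHQ-2-YbbR (12.5 uM) using rhodamine-CoA (5 uM). Two reads 30 minutes apart at 525/598 nm yielded each well's rate.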
TRPV1 PAM: potentiators of human vanilloid receptor 1 (TRPV1). Q8NER1. TRPV1-expressing cells, Fluo-8 calcium influx, capsaicin EC20 potentiation; host cell line not named in the record; control for the full effect not named in the record. potentiation, % at 8.33 µM. hit rate 0.02% among 320,000. AID 540277; active means potentiation above 80%; inconclusive means 30% to 80%; inactive means below 30%; further: 0% is about no effect
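Cells expressing TRPV1 were dye-loaded with Fluo-8 and read kinetically: 10 s baseline, 3 min after compound (agonist portion), then 2 min after EC20 capsaicin (allosteric enhancer portion). Calcium-bound dye fluorescence at 480/520 nm.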
Menin MLL FP FL: displaces fluorescein MLL peptide from human menin; AID 1766; FP activity change, % at 61.4 µM; Fluorescence polarization, fluorescein-MLL peptide displacement from menin; 290,000 tested, under 10 active; inconclusive = falling polarisation curve, or a change in total fluorescence; inactive = total fluorescence flat and polarisation flat or rising; no compound was filed as active; the % refers to the polarisation; negative = inhibition;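 further: % of control where 0% means no effect; inhibitors lower the polarisation; unlabelled MLL peptide was the positive control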
An asterisk follows results filed as active; [ ] = remark or other dose.

What do the screens show for `COc1cc(CNC2CCCC2)c(Br)cc1OCc1ccccc1`?
PINK1 expr mod: 4.2%; TRPML1 agonist: -0.4; TRPML1 inh: 10; Sfp PPTase inh: 10%; TRPV1 PAM: 7; Menin MLL FP FL: -0.8

How did COc1cccc2cc(C(=O)N3CCc4ccccc43)c(=O)oc12 do in these assays?
PINK1 expr mod: 7.2%; TRPML1 agonist: 0.0; TRPML1 inh: -13; ClpP mod: -1.2%; Sfp PPTase inh: 20%; TRPV1 PAM: inconclusive; Menin MLL FP FL: -1.0

What do the screens show for `COc1cc(OC)cc(C(=O)NNC(=O)CCNS(=O)(=O)c2ccc(C)c(C)c2)c1`?
PINK1 expr mod: -0.5%; TRPML1 agonist: -0.8; TRPML1 inh: 14; ClpP mod: 1.8%; TRPV1 PAM: 7

What do the screens show for `COc1ccc(C2C(C(N)=O)=C(C)Nc3nc(-c4ccccc4)nn32)cc1OC` (configuration not stated)?
PINK1 expr mod: 2.6%; TRPML1 agonist: 0.6; TRPML1 inh: -11; ClpP mod: -2.9%; Sfp PPTase inh: 20%; TRPV1 PAM: -2; Menin MLL FP FL: -0.4

How did COc1ccc2[nH]c(C(=O)O)c(NC(=O)c3cc(OC)c(OC)c(OC)c3)c2c1 do in these assays?
PINK1 expr mod: -1.5%; TRPML1 agonist: 2.1; TRPML1 inh: 6; ClpP mod: -2.6%; Sfp PPTase inh: 4%; TRPV1 PAM: 3; Menin MLL FP FL: -1.8

What do the screens show for `Cn1c(/C=C/N(Cc2ccccc2)c2ccccc2)c([N+](=O)[O-])c(=O)n(C)c1=O`?
PINK1 expr mod: 3.4%; TRPML1 agonist: 2.5; TRPML1 inh: 5; ClpP mod: 2.5%; Sfp PPTase inh: -3%; TRPV1 PAM: 0; Menin MLL FP FL: 0.4

How did CCOC(=O)c1cc(S(=O)(=O)N(C)c2ccccc2)[nH]n1 do in these assays?
PINK1 expr mod: -0.1%; TRPML1 agonist: -0.4; TRPML1 inh: -5; ClpP mod: -1.4%

Results for O=S(=O)(Nc1ccc(Cl)cn1)c1cnc(Cl)c(Br)c1 ?
PINK1 expr mod: inconclusive; TRPML1 agonist: -0.2; TRPML1 inh: -10; Sfp PPTase inh: 14%; TRPV1 PAM: 5; Menin MLL FP FL: -0.5

How did Cc1c(Cl)cnc(NC(=O)COC(=O)C2CCCC2)c1Cl do in these assays?
PINK1 expr mod: -1.8%; TRPML1 agonist: -0.3; TRPML1 inh: 3; ClpP mod: -0.2%

Results for COc1ccc(S(=O)(=O)NC(=O)C2(C)CCN2C(=O)CC2CC2)cc1 (configuration not stated) ?
PINK1 expr mod: 0.2%; TRPML1 agonist: -0.3; ClpP mod: 2.5%

Results for CC1=C/C(=C(\c2cc(C)c(O)c(Br)c2)c2ccccc2S(=O)(=O)O)C=C(Br)C1=O ?
PINK1 expr mod: 0.3%; TRPML1 agonist: 0.3; TRPML1 inh: -7; ClpP mod: 0.4%; Sfp PPTase inh: 45µM*; TRPV1 PAM: -18; Menin MLL FP FL: inconclusive

How did CC(C)CNC(=O)c1ccc(C2SCC(=O)N2Cc2ccccc2)cc1 (configuration not stated) do in these assays?
PINK1 expr mod: 1.4%; TRPML1 agonist: -0.3; TRPML1 inh: -11; Sfp PPTase inh: 13%; TRPV1 PAM: -14; Menin MLL FP FL: 3.1

How did O=S(=O)(Nc1ccc(Cl)cn1)c1ccc(Cl)cc1 do in these assays?
PINK1 expr mod: -0.2%; TRPML1 agonist: -0.2; TRPML1 inh: 9; ClpP mod: -1.8%; Sfp PPTase inh: 29%; TRPV1 PAM: -3; Menin MLL FP FL: -3.4

Results for COc1ccc(-c2nn3c(-c4cc(-c5ccccc5)n[nH]4)nnc3s2)cc1OC ?
PINK1 expr mod: 1.3%; TRPML1 agonist: -0.6; ClpP mod: 1.2%

Results for COc1ccccc1COc1ccc2c(C)c(CCC(=O)O)c(=O)oc2c1C ?
PINK1 expr mod: 1.7%; TRPML1 agonist: -1.5; TRPML1 inh: -7; ClpP mod: -1.6%; Sfp PPTase inh: 2%; TRPV1 PAM: inconclusive; Menin MLL FP FL: -0.9

Results for CC1N/C(=C\C(=O)c2ccccc2)N(O)C1(C)C (configuration not stated) ?
PINK1 expr mod: 0.1%; TRPML1 agonist: -0.6; TRPML1 inh: -20; ClpP mod: 264%; Sfp PPTase inh: 0%; TRPV1 PAM: -5; Menin MLL FP FL: 1.8

Results for O=C(C1=C[C@H](c2ccc(Br)cc2)C[C@H](OCCCCO)O1)N1CCN(Cc2ccccc2)CC1 ?
PINK1 expr mod: 1.3%; TRPML1 agonist: -0.7; TRPML1 inh: 7; ClpP mod: -1.1%; Sfp PPTase inh: 1%; TRPV1 PAM: -17; Menin MLL FP FL: 0.6

What do the screens show for `CN1CCN(C(=O)c2ccc3c(=O)n4c(nc3c2)CCCCC4)CC1`?
PINK1 expr mod: 1.4%; TRPML1 agonist: -0.7; TRPML1 inh: 18; ClpP mod: -3.5%; Sfp PPTase inh: 6%; TRPV1 PAM: 4; Menin MLL FP FL: 2.3

Results for CCC(C)NC(=O)c1cn(-c2cccc(C)n2)cn1 (configuration not stated) ?
PINK1 expr mod: 5.1%; TRPML1 agonist: -0.5; TRPML1 inh: 7; ClpP mod: 32µM*; Sfp PPTase inh: 12%; TRPV1 PAM: -5; Menin MLL FP FL: -0.2

Results for CCc1cccc(C)c1NC(=O)COC(=O)C(NS(=O)(=O)c1ccc(Cl)cc1)C(C)O (configuration not stated) ?
PINK1 expr mod: 11%; TRPML1 agonist: 0.5; TRPML1 inh: -8; ClpP mod: -1.5%; Sfp PPTase inh: 7%; TRPV1 PAM: -5

How did Cc1ccc(-c2cccc(CN3CCN(C4CCN(C(C)C)CC4)C(CCO)C3)c2)o1 (configuration not stated) do in these assays?
PINK1 expr mod: 2.2%; TRPML1 agonist: 0.2; TRPML1 inh: 38; ClpP mod: 4.3%; Sfp PPTase inh: -17%; TRPV1 PAM: -4; Menin MLL FP FL: -7.7

Results for O=C(NCc1ccccc1Cl)c1ccc2c(c1)nnn2C1CCCC1 ?
PINK1 expr mod: 1.0%; TRPML1 agonist: 1.2; TRPML1 inh: -2; ClpP mod: 0.9%

Results for COc1ccc(-n2nc(C(=O)NCC(=O)N3CCC(C)CC3)c3ccccc3c2=O)c(OC)c1 ?
PINK1 expr mod: 1.9%; TRPML1 agonist: -1.5; TRPML1 inh: 38; ClpP mod: 0.3%; Sfp PPTase inh: 24%; TRPV1 PAM: -9; Menin MLL FP FL: -0.2

Results for c1ccc(CC2CCN(c3nnnn3-c3ccccc3)CC2)cc1 ?
PINK1 expr mod: 1.0%; TRPML1 agonist: 1.8; TRPML1 inh: -3; ClpP mod: -9.2%; Sfp PPTase inh: -12%; TRPV1 PAM: -24; Menin MLL FP FL: 3.6

How did COCCNC(=O)CSc1nnc(NC(=O)C2CC(=O)N(c3ccccc3OC)C2)s1 (configuration not stated) do in these assays?
PINK1 expr mod: -0.8%; TRPML1 agonist: 0.3; TRPML1 inh: -7; ClpP mod: -12%; Sfp PPTase inh: 50µM*; TRPV1 PAM: -4

What do the screens show for `COc1ccc(C(=O)NCC(=O)OCc2csc(-c3ccccc3)n2)cc1`?
PINK1 expr mod: 3.0%; TRPML1 agonist: 0.0; TRPML1 inh: -12; ClpP mod: -2.3%; Sfp PPTase inh: -2%; TRPV1 PAM: 11; Menin MLL FP FL: 5.0

What do the screens show for `COc1ccc(OCCSc2nnc(-c3ccccc3)n2N)cc1`?
PINK1 expr mod: 1.4%; TRPML1 agonist: -1.1; TRPML1 inh: -1; ClpP mod: 1.6%; Sfp PPTase inh: 13%; TRPV1 PAM: -21; Menin MLL FP FL: 2.7

Results for CC(C)C(c1nnnn1Cc1ccc(F)cc1)N1CCN(C2CCCC2)CC1 (configuration not stated) ?
PINK1 expr mod: -1.2%; TRPML1 agonist: -1.5; TRPML1 inh: -22; ClpP mod: -0.2%; Sfp PPTase inh: 12%; TRPV1 PAM: 13; Menin MLL FP FL: -0.7

Results for CCN(CC)C(=O)c1c[nH]c2ccc(S(=O)(=O)Nc3cc(C)cc(C)c3)cc2c1=O ?
PINK1 expr mod: -0.9%; TRPML1 agonist: -0.3; TRPML1 inh: 1; ClpP mod: inconclusive; Sfp PPTase inh: 24%; TRPV1 PAM: -3; Menin MLL FP FL: -0.4

Results for O=Cc1ccc(B(O)O)cc1 ?
PINK1 expr mod: 1.6%; TRPML1 agonist: -0.7; ClpP mod: 1.4%; Sfp PPTase inh: 6%; Menin MLL FP FL: 1.6

How did Cc1ccc(CSc2nnc(-c3ccncc3)n2C)cc1 do in these assays?
PINK1 expr mod: 0.3%; TRPML1 agonist: 0.2; TRPML1 inh: 0; ClpP mod: 1.4%; Sfp PPTase inh: 7%; TRPV1 PAM: -13; Menin MLL FP FL: 1.3

Results for COc1cc(C2c3c(c(C)c(C)oc3=O)Oc3c(C)c(C)oc(=O)c32)ccc1OS(=O)(=O)c1ccc(C)cc1 ?
PINK1 expr mod: -0.4%; TRPML1 agonist: 0.3; TRPML1 inh: -16; ClpP mod: -7.8%; TRPV1 PAM: -2

Results for Cc1c(Cl)cccc1NC(=O)Cn1c(-c2ccc(F)cc2)noc1=O ?
PINK1 expr mod: 1.2%; TRPML1 agonist: 0.1; TRPML1 inh: -4; ClpP mod: 0.8%; Sfp PPTase inh: inconclusive; TRPV1 PAM: 30; Menin MLL FP FL: 1.5

What do the screens show for `COc1ccc([C@]23Cc4ccccc4C(O2)C2=C(O3)C(=O)c3ccccc3C2=O)cc1`?
Sfp PPTase inh: 6%; TRPV1 PAM: inactive; Menin MLL FP FL: -3.2[11.7 µM]

Results for O=S(=O)(NCc1cccs1)c1cccc2cccnc12 ?
PINK1 expr mod: -1.1%[38.3 µM]; TRPML1 agonist: 0.4; TRPML1 inh: 2; ClpP mod: -1.9%; Sfp PPTase inh: 1%; TRPV1 PAM: inconclusive; Menin MLL FP FL: 1.4

Results for Cc1c(Cl)cccc1NC(=O)C(=O)NNC(=O)c1ccccc1F ?
PINK1 expr mod: 2.2%; TRPML1 agonist: -0.6; TRPML1 inh: 9; Sfp PPTase inh: 10%; TRPV1 PAM: -2; Menin MLL FP FL: -5.5

Compound activity as filed in PubChem BioAssay.
